NPYLR7 agonist: mosquito NPYLR7 agonism. HEK293T NPYLR7/Galpha15, GCaMP6s calcium fluorescence. activation, % at 10 µM. 270,000 tested, 0.15% active. AID 1259423; in the data active = activation above about 40%;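 note: 0% = vehicle and 100% = reference agonist at the receptor; some compounds past the cut are filed as inactive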
NPYLR7 agonist max-min: further read-out of NPYLR7 agonist, marked with its call; activation, %; measured here: Max-Min RFU normalised activation; some inactives read as strong as hits;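 span of the calcium signal over five minutes; 0% = vehicle and 100% = native peptide agonist; compound fluorescence can raise it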
Active calls of the source: *; & = joins results of further samples.

Under each structure – NPYLR7 agonist	NPYLR7 agonist max-min
CC(C(=O)N1CCN(C(=O)c2ccco2)CC1)N1C(=O)NC2(CCCCC2C)C1=O (centres undefined)
  -0.2	-1.1
CCCCN(CC(=O)N(Cc1cccn1Cc1ccccc1)C1CC1)C(=O)c1cccc(F)c1
  -12.0	-4.7
O=C1CC(c2cccnc2N2CCOCC2)c2cnn(-c3ccccc3)c2N1 (centres undefined)
  14.3	3.6
CN1C(=O)C[C@@H](C(=O)N[C@@H]2C[C@H]3CC[C@]2(C)C3(C)C)[C@@H]1c1cccnc1
  8.9	6.9
Cc1ccc(-c2cn(CCCSc3nnc(C)s3)nn2)o1
  3.9	1.3
CCOC(=O)c1c(C)[nH]c(C(=O)C(C)N2C(=O)CC3(CCCC3)C2=O)c1C (centres undefined)
  -0.8	-1.2
Cc1c(CN(C)Cc2ccc3nsnc3c2)c(=O)n(-c2ccccc2)n1C
  6.9	5.4
CC(=O)Oc1ccc(C(=O)N2CCN(c3cccc(Cl)c3)CC2)cc1
  0.2	0.5
O=c1cc(CN2CCOC(Cc3cccc(C(F)(F)F)c3)C2)[nH]c(=O)[nH]1 (centres undefined)
  7.6	1.7
COc1ccc(CNC(=O)c2sc(=O)n(Cc3c(C)cccc3C)c2C)cc1
  13.9	6.7
Cc1ccc(C2=Nc3nnnn3C(c3ccc(Cl)cc3)C2)cc1 (centres undefined)
  6.2	7.0
CN(C)CCN(Cc1cc(N)ccc1N(C)C)C(=O)c1ccc(F)cc1
  -1.4	3.2
CCn1nnnc1SCC(=O)Nc1ccc(N2CCCCCC2)cc1
  2.6	-3.7
CC(Sc1nnc(-c2ccccc2)n1C)c1cccc([N+](=O)[O-])c1 (centres undefined)
  21.3	17.5
CCC(=O)N1CCN(c2nccc(-c3ccc4c(c3)OCO4)n2)CC1
  -6.3	-10.5
CCN(C(C)=O)c1nc(COC(=O)CN2C(=O)C3CC=CCC3C2=O)cs1 (centres undefined)
  -1.9	13.7
Cc1cc(C)n(-c2cccc(CN(C)C(=O)Cn3nnnc3CN3CCCC3)c2)n1
  1.9&12.9	-0.4&6.4
COc1cccc(-n2cc(CN(C)Cc3cnc(N(C)C)nc3)cn2)c1
  5.0	2.9
COc1cc(OC)nc(C(NC(=O)C2CCN(Cc3cccc(C(F)(F)F)c3)CC2)c2ccc(F)cc2)n1 (centres undefined)
  6.8	7.2
O=C(c1ccccc1)N1N=C(c2ccncc2)CC1(O)C(F)(F)F (centres undefined)
  -1.4	-3.0
CCOc1ccccc1-c1nc(COC(=O)c2nnn(-c3ccc(Cl)cc3)c2C)c(C)o1
  8.0	1.2
Cn1cccc1-c1nnc(SCc2ccncc2)o1
  5.9	-6.2
Cc1cccc(CN(C(=O)c2ccc(F)cc2)C2CCC(NC(=O)C3CCN(S(C)(=O)=O)CC3)CC2)c1 (centres undefined)
  1.1	13.9
C#CCN(C)C(=O)c1ccc(OCC(N)=O)cc1
  14.2	-1.7
O=C(CCc1ccco1)NC1CC(=O)N(C2CCCCCC2)C1 (centres undefined)
  -0.4	-5.0
COC(=O)C[C@@H]1O[C@H](CNC(=O)c2ccc(C)cc2)[C@@H](O)[C@H]1O
  -7.4	-10.2
O=[N+]([O-])c1cc2c(cc1/C=N\Nc1nc(N3CCCC3)nc(N3CCCC3)n1)OCO2
  -9.4	-12.3
Cc1cnn(CCC(=O)N2CCC3(CCNCC3)CC2)c1
  7.3	2.2
O=C(NCc1ccncc1)c1ccc2sc([C@@H]3O[C@H](CO)[C@H](O)[C@H](O)[C@H]3O)nc2c1
  -1.3	-3.1
COc1cccc(CC(=O)N2CCC3(CC2)OCc2cc(Cl)ccc2O3)c1
  6.4	-7.2
CCOC(=O)c1c(C)[nH]c(C(=O)CC#N)c1C
  1.6	3.0
O=C(CSc1nnc(NC(=O)COc2ccccc2)s1)Nc1nccs1
  3.1	3.8
Nc1c(Cl)c(Cl)nc(C(=O)N/N=C\C=C\c2ccccc2)c1Cl
  -10.1	-16.0
COc1ccc(-n2c(SCC3CCCO3)nnc2-c2ccccc2Cl)cc1 (centres undefined)
  -2.1	33.6
O=C(Nc1ccc(Nc2ccc(-n3cccn3)nn2)cc1)c1cccc(Br)c1
  -8.4	-15.9
O=C(/C=C/c1nc2ccccc2o1)Nc1ccc(N2CCOCC2)cn1
  4.8	2.7
CCCSCC(=O)N(Cc1ccc(C)s1)C1CCCC1
  6.7	-8.6
CC1CN(C)CC1NS(=O)(=O)/C=C/c1ccccc1 (centres undefined)
  -8.4	-7.7
CN(C)CC1(O)CCN(C(=O)c2ccc(-c3nnn(C)n3)cc2)C1 (centres undefined)
  8.9	7.1
CN[C@H](CC(=O)O)C(=O)O
  4.1	-50.7
CCC(C(=O)N1CCN(c2cc(Oc3ccc(OC)cc3)ncn2)CC1C)c1ccccc1 (centres undefined)
  2.1	3.4
COCC1CCCN(C(=O)c2ccc(N(C)CCc3ccccc3)nc2)C1 (centres undefined)
  0.3	-5.9
Cc1nc2ccccn2c(=O)c1NC(=O)Nc1ccc(C(C)(C)C)cc1
  4.5	2.6
Cc1cccc(Cn2cnc3c(nnn3C)c2=O)c1
  1.4	5.7
Cc1nc(SCC(=O)NC2CCS(=O)(=O)C2)n(C2CCCCC2)c1C (centres undefined)
  1.0	2.6
Cc1ccc(-n2c(-c3ccc(F)cc3)cc(C(=O)N3CCN(C(=O)c4ccc(Br)cc4)CC3)c2C)cc1
  -1.5	11.0
CC(C)CN(Cc1cc(NC(=O)c2cccc(F)c2)ccc1N(C)C)S(=O)(=O)c1ccc(F)cc1
  16.8	13.7
COCCNc1oc2c(c1-c1cccc(Cl)c1)c(=O)n(C)c(=O)n2C
  -1.0	-2.2
COc1cccc(CN2CCn3nc(C(=O)N4CCN(c5ccccc5F)CC4)cc3C2=O)c1
  -13.1	-4.9
O=C1NCCC1N1CCN(c2nccc(C(F)(F)F)n2)CC1 (centres undefined)
  -20.9	-21.9

Quoted from the listing:
In NPYLR7 agonist, O=C1NCCC1N1CCN(c2nccc(C(F)(F)F)n2)CC1 (centres undefined) shows -20.9
In NPYLR7 agonist, Cc1nc2ccccn2c(=O)c1NC(=O)Nc1ccc(C(C)(C)C)cc1 shows 4.5
In NPYLR7 agonist max-min, Cc1ccc(-n2c(-c3ccc(F)cc3)cc(C(=O)N3CCN(C(=O)c4ccc(Br)cc4)CC3)c2C)cc1 shows 11.0
In NPYLR7 agonist, COCCNc1oc2c(c1-c1cccc(Cl)c1)c(=O)n(C)c(=O)n2C shows -1.0
In NPYLR7 agonist max-min, COCC1CCCN(C(=O)c2ccc(N(C)CCc3ccccc3)nc2)C1 (centres undefined) shows -5.9
In NPYLR7 agonist, Cc1cccc(Cn2cnc3c(nnn3C)c2=O)c1 shows 1.4
In NPYLR7 agonist, COc1cccc(CN2CCn3nc(C(=O)N4CCN(c5ccccc5F)CC4)cc3C2=O)c1 shows -13.1

Further structures follow:
Under each structure – NPYLR7 agonist	NPYLR7 agonist max-min
COC(=O)c1ccc(CSc2ncnc3c2nnn3-c2cccc(Cl)c2)o1
  18.5	20.9
CC(NC(=O)c1ccccc1)C(=O)N1CCCC1c1ccccc1 (centres undefined)
  2.3&1.4	1.0&2.2
COC1(OC)OC=C(C#N)C(c2ccccc2)C1(OC)OC (centres undefined)
  5.8	14.1
C=CCNC(CC(=O)Nc1cccc(F)c1)C(=O)O (centres undefined)
  -3.3	-6.0
CC(NC(=O)N1CCC(CCc2ccc(O)cc2)CC1)c1ccc(N2CCOCC2)cc1 (centres undefined)
  -6.5	-8.0
Nc1nc(SC2(c3ccccc3)OCCO2)n[nH]1
  7.2	-0.3
COC(=O)[C@@H]1C[C@H](NC(=O)C2=NN(C)C(=O)CC2)CN1C
  -0.2	3.0
O=C(Cn1nc2c(c1NC(=O)Cc1cccs1)CSC2)NCC1CCCO1 (centres undefined)
  -4.8	-2.9
COc1ccccc1CN(Cc1nc(C(=O)NCc2cccnc2)co1)C(C)C
  4.9	-1.1
COc1cc(COC2CN(C(=O)c3csc(SC)n3)CC(=O)N(C(C)C)C2)cc(OC)c1 (centres undefined)
  -1.5	-10.6

Pulled by compound from above (5):
Under each structure – NPYLR7 agonist	NPYLR7 agonist max-min
COC1(OC)OC=C(C#N)C(c2ccccc2)C1(OC)OC (centres undefined)
  5.8	14.1
C=CCNC(CC(=O)Nc1cccc(F)c1)C(=O)O (centres undefined)
  -3.3	-6.0
CC(NC(=O)c1ccccc1)C(=O)N1CCCC1c1ccccc1 (centres undefined)
  2.3&1.4	1.0&2.2
COc1cc(COC2CN(C(=O)c3csc(SC)n3)CC(=O)N(C(C)C)C2)cc(OC)c1 (centres undefined)
  -1.5	-10.6
Nc1nc(SC2(c3ccccc3)OCCO2)n[nH]1
  7.2	-0.3

(more compounds)
Under each structure – NPYLR7 agonist	NPYLR7 agonist max-min
CC(C)(C)Nc1c(-c2ccccc2F)nc2c(OCc3ccccc3)cccn12
  20.9	14.6
CCCC(C#N)NS(=O)(=O)c1ccc(CC)s1 (centres undefined)
  2.5	0.9
CCc1ccc(/C=C/c2[nH]c(=O)[nH]c(=O)c2[N+](=O)[O-])cc1
  -6.8	-15.9
O=C(Cn1nnnc1CN1CCCC1)NC1CCCN(Cc2ccccc2)C1 (centres undefined)
  1.8	-1.9
Cc1cc(NC(=O)COc2ccccc2)n(-c2ncnc3c2cnn3-c2cccc(C)c2C)n1
  9.1	4.2
O=C1c2ccccc2C(=O)N1CCCCOc1ccc(Cl)cc1
  19.6	12.6
CCC(C(=O)NC(C)CCc1ccco1)n1nc(C)n2c(cc3occc32)c1=O (centres undefined)
  -1.7	-0.6
CCCCC(CC)Cn1c(=N)c(C#N)cc2c(=O)n3ccccc3nc21 (centres undefined)
  8.9	12.7
COC(=O)c1c(NC(=O)CCCC(=O)O)sc2c1CCC2
  2.1	1.6
COc1ccc(-c2cc(C(=O)NCc3ccccc3)n3nc(C(C)(C)C)cc3n2)cc1
  13.7	17.0
O=c1[nH]c(=O)n([C@H]2C[C@H](O)[C@@H](CO)O2)cc1/C=C/Br
  7.2	-6.4
Cc1ccc(S(=O)(=O)N2CCN(c3ccc4c(c3)CCC4)C(=O)C2C)cc1 (centres undefined)
  -2.6	-0.4
COc1ccccc1Nc1nc2c(S(=O)(=O)c3ccc(Cl)cc3)nnn2c2ccsc12
  -11.0	-15.2
COc1ccc([N+](=O)[O-])cc1CN1CCCn2cccc2C1c1ccccc1Cl (centres undefined)
  5.9	17.0
Brc1ccc(C2CC(c3cccs3)=Nc3nnnn32)cc1 (centres undefined)
  38.4	33.5
c1ccc(OCCCN2CCC3(CC2)OCCCO3)cc1
  0.3	-2.3
CC(C)CNC(=O)C1(C)CCN1C(=O)c1ccc(C(C)(C)C)cc1 (centres undefined)
  9.8	7.3
COc1ccc(CN(C(=O)C2CC2)C(C)C)cc1OCc1nc(CO)cs1
  24.0	26.8
Cc1nc(CN2C(=O)C(C)(C)ON=C2c2ccc(C(F)(F)F)cc2)cs1
  7.7	2.2
O=c1cccnn1CCCNS(=O)(=O)c1ccccc1C(F)(F)F
  -5.3	-7.0
CCCNC(=O)C(NC(=O)c1cccs1)C1CCN(C(=S)NCC)CC1 (centres undefined)
  -12.7	-8.3
COc1cc(C2C(=C(O)c3ccccc3)C(=O)C(=O)N2CCCN2CCOCC2)cc(OC)c1OC (centres undefined)
  9.9	6.3
NC(=O)C1CCN(C(=O)Cc2ccc(Br)cc2)CC1
  0.4	1.9
COC(=O)c1cccc(NC(=O)c2nnn(-c3ccc(C)cc3)c2C)c1
  4.3	2.5
COCC(=O)N(Cc1ccco1)Cc1ccccc1OS(=O)(=O)c1ccc(NC(C)=O)cc1
  32.8	22.7
Cc1nc2n(n1)C(=O)C(C(c1cccs1)N1CCN(C(=O)c3ccco3)CC1)S2 (centres undefined)
  -11.0	-8.5
O=c1c(Cl)c(N2CCN(c3ncccn3)CC2)cnn1-c1nc2ccccc2[nH]1
  -0.1	4.7
COc1nn(Cc2c(F)c(F)c(F)c(F)c2F)cc1[N+](=O)[O-]
  2.5	2.7
CC(C)N(Cc1c(-c2ccccc2)noc1N1CCCCC1)C(=O)c1ccccc1F
  16.1	15.9
CCC(=O)c1cc(Cl)cc(Cl)c1OCc1ccc(C#N)cc1
  -6.3	-5.7
CC1NC2(C(=O)Nc3ccccc32)C2C(=O)N(c3cccc4ccccc34)C(=O)C12 (centres undefined)
  -1.6	-5.6
COc1ccc(Nc2ccc(S(=O)(=O)NC(C)C)cn2)cc1
  9.6	3.2
CC(C)c1[nH]n(-c2ccccc2)c(=O)c1-c1ccc(NC(=O)c2ccccc2Cl)cc1
  -14.9	-13.3
Cc1cccnc1NC(=O)C1CCN(c2cccc(C(F)(F)F)n2)CC1
  -0.4	-1.5
COC(=O)CCCN(C)C(=O)CCc1ccc(-c2ccccc2)[nH]1
  3.9	-0.1
CC(=O)OC1CC(O)/C(C)=C\C2C(OC(=O)c3ccccc3)C(C)C(O)C2(OC(C)=O)C(O)C(C)(O)/C=C/C1(C)C (centres undefined)
  -5.8	-11.3
O=C(c1ccc(OCCN2CCCCC2)cc1)c1c(-c2ccc(O)cc2)sc2cc(O)ccc12
  -4.0&3.8&0.8	-9.0&-4.1&9.6
O=C(NCCc1ccc(F)cc1)c1cc(=O)c(OCc2ccc(F)cc2)c[nH]1
  4.2	3.0
CSc1ccccc1C(=O)Nc1nn(C)c2c1C(c1ccccc1)CC(=O)N2 (centres undefined)
  -15.1	-16.4
CCOC(=O)C1=C(C)N=c2s/c(=C\c3ccc(Br)cc3)c(=O)n2C1c1ccc(OC)cc1 (centres undefined)
  -0.9	-2.7
CC(=O)c1cccc(NC(C)C(=O)c2c(C)[nH]c3ccccc23)c1 (centres undefined)
  0.8	-1.6

These rows are one share of the data; count on the stated rates, not on these rows.
